Screening data: PubChem BioAssay, Johns Hopkins Ion Channel Center
KCNQ2 pot: potentiators of rat KCNQ2 potassium channel; O88943; CHO-K1 KCNQ2, FluxOR thallium flux fluorescence; active compounds read high; B-score at 10 µM; actives 0.54% (n = 310,000); AID 2239;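 active = fluorescence ratio B-score at least 3 SD of library B-scores, with initial fluorescence B-score within 3 SD, cut at about 5.3 in these data; same plate scores as AID 2156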;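 also: B-score of peak minus minimum over baseline fluorescence ratio after K+ and Tl+ stimulus; positive B-score means potentiation of KCNQ2 with more thallium influx and brighter signal; only the inactives scoring about 0 or higher are listed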
Target sequence (O88943 whole entry, looked up): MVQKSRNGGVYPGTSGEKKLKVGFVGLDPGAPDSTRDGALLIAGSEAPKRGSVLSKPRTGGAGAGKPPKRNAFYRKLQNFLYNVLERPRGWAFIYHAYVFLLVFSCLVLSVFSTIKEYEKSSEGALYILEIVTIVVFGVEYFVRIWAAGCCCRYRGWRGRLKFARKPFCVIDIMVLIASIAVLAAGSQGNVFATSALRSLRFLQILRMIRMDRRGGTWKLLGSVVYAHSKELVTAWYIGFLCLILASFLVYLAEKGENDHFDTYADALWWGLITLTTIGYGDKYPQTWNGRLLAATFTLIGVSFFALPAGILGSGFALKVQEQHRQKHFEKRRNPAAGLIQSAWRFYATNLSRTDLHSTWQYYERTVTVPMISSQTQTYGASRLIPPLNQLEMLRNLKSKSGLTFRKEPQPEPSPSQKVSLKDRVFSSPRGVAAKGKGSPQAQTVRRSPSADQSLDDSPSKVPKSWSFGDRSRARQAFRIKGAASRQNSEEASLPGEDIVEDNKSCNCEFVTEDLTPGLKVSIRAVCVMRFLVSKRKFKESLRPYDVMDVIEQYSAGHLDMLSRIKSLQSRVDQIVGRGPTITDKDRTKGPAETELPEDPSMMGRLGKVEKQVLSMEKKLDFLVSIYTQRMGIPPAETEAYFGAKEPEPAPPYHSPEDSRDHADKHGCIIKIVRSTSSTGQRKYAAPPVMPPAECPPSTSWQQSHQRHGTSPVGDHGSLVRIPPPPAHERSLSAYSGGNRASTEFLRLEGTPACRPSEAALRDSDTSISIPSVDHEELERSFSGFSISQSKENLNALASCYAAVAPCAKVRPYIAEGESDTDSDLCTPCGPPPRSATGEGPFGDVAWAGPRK
KCNQ2 pot baseline: second read-out of KCNQ2 pot, no call of its own (marks repeat the call); B-score; compound at 10 µM; measured here: initial fluorescence intensity artifact check;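 brightness before thallium and not channel activity; 0 = typical well and far values either way flag optical interference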
Numbers without * were called inactive. These rows are one share of the data; rates above refer to the full screens.

SMILES	KCNQ2 pot	KCNQ2 pot baseline
O=C(CN1C(=O)NC2(CCCCC2)C1=O)Nc1cc(C(F)(F)F)ccc1N1CCCCC1	0.71	-1.78
Cc1csc(Nc2ccccc2)[n+]1C	1.22	-0.08
CCN(CC)S(=O)(=O)c1ccc(OCC(=O)NCc2ccco2)cc1	0.62	0.53
c1ccc(-c2nc(-c3ccc(-c4ccon4)s3)no2)cc1	0.01	-0.11
O=C(CCC(=O)Nc1ccccc1)NNC(=O)CCc1ccccc1	0.81	-0.49
CCc1ccc(CN2CCC(C(=O)Nc3ccc(Oc4ccccc4)nc3)CC2)o1	0.37	-0.01
Cc1nn(CC(=O)NCc2ccccc2)c(=O)c2cccn12	0.01	-0.49
Cc1c(C2C(C#N)=C(N)OC3=C2C(=O)CCC3)cnn1C (stereo not given)	2.77	-0.04
CSc1ncccc1C(=O)OCc1nc2ccsc2c(=O)[nH]1	0.56	0.14
CCOC(=O)c1ccc(N=C2SC(C(=O)NC)CC(=O)N2CCc2ccccc2)cc1 (stereo not given)	0.6	0.47
COC(=O)c1cnn(C(=O)c2cc(OC)ccc2Br)c1N	1.18	0.43
CNc1oc(-c2ccccc2Cl)nc1C#N	0.37	-2.86
Cc1ccc(NS(=O)(=O)c2ccc3c(c2)NC(=O)CC(=O)N3)cc1C	0.66	-0.71
CCN(CC)c1ccc(/C=N/NC(=O)c2cnccn2)c(O)c1	0.37	-0.15
COc1ccccc1Nc1nc(N)nc(CN2CCCCCC2)n1	0.01	1.12
Cc1cc(O)c(C=Nc2cccc(Cl)c2)c(=O)o1	0.63	-0.01
O=C(NC1CCCC1)C1CCN(c2cnccn2)CC1	1.84	-0.02
C/C(=N/NC(=O)c1nnn(-c2nonc2N)c1COc1ccccc1)c1ccc(O)cc1	0.8	-0.28
COc1cc(C2CC(=O)n3c(nc4ccccc43)S2)cc(OC)c1OC (stereo not given)	0.04	0.04
CN1C(C(=O)NCc2cccc(Br)c2)CC2Cn3c(nc4ccccc43)C21 (stereo not given)	2.03	-0.72
CN1C(=O)c2cccc3c(S(=O)(=O)N4CCCC4C(=O)O)ccc1c23 (stereo not given)	0.59	-0.01
Cc1csc(NC(=O)c2cccnc2Cl)n1	0.77	-0.75
CC1CCN(CCCNC(=O)c2ccc(CS(=O)(=O)Cc3ccc(Cl)cc3)o2)CC1	0.58	2.96
CC(C)NC(=O)COC(=O)c1ccccc1Oc1ccccc1	0.01	0.91
O=C(O)C1Sc2[nH]c(=O)sc2C2c3ccc(O)cc3OC(=O)C12 (stereo not given)	0.23	-0.08
O=C(O)c1cc(S(=O)(=O)N2CCOCC2)ccc1N1CCCCC1	0.37	0.54
COC(=O)c1ccc(C(=O)OC)c(NC(=O)C2CCCO2)c1 (stereo not given)	0.99	-0.11
COc1cc(Cl)ccc1NC(=O)COc1ccccc1C(=O)NN	0.91	-0.38
Cc1cc(C)nc(NC(=O)c2ccc(Br)s2)n1	0.38	0
Cc1[nH][nH]c(=O)c1C=NCc1ccc(Cl)cc1	0.51	-0.29
Nc1nc(NC(=O)c2ccccc2Cl)nn1-c1ccccc1	0.04	-0.17
CCOC(=O)Nc1ccc2c(c1)N(C(=O)CN1CCN(CCO)CC1)c1ccccc1CC2	1	-1.17
O=C(Nc1ccc(C#Cc2ccccc2)cc1)C1CC1	0.68	-0.92
COc1ccccc1C(CNC(=O)c1cc(C)nc2ccccc12)N(C)C (stereo not given)	1.29	-0.26
COc1cc(C=O)c(Br)cc1OCC(=O)NCCc1ccccc1	0.36	0.48
CN(C)S(=O)(=O)c1ccc(C(=O)N2CCN=C2SCc2cccnc2)cc1	0.04	0.37
CCOC(=O)C1CCN(C(=O)COC(=O)c2ccc3[nH]c4c(c3c2)CCCC4)CC1	0.43	-1.44
O=C(Nc1ccc(OC(F)(F)F)cc1)Nc1cccnc1	1.71	0.19
CC1(C)CC(=O)c2cc(OCC(=O)NCCN3CCOCC3)ccc2O1	0.37	-0.22
CCOC(=O)C1CCN(C(=O)Cn2cccc2C(=O)c2ccccc2)CC1	0.19	-0.6
CCN(CC(=O)Nc1c(F)cccc1F)C(=O)CCc1ccc(OC)cc1	0.09	-0.55
COc1ccc(C)cc1NC(=O)Nc1cnccn1	0.54	-1.26
CCC(C(=O)O)n1nnc(-c2ccc(OCc3ccccc3)c(OC)c2)n1 (stereo not given)	0.39	-1.08
CCOC(=O)c1c(NC(=O)CN2CCOCC2)sc2c1CCCC2=O	0.08	-0.84
Cc1c(NC(=O)NC(=O)c2ccc(F)cc2)c(=O)n(-c2ccccc2)n1C	0.12	0.84
O=S1(=O)N=C(N=Nc2c(O)[nH]c3ccccc23)c2ccccc21	0.17	-0.25
CCOC(=O)Cc1csc(NC(=O)CSc2nnc(C)n2C)n1	2.1	-0.42
Cc1csc(NC(=O)CSc2ncn(-c3ccccc3)n2)n1	0.05	-0.25
CC(C)NS(=O)(=O)c1ccc(CCC(=O)Nc2ccc3c(c2)OCCO3)cc1	0.89	-1.68
CCOc1ccc(C(=O)Nc2cc3c(cc2N2CCCC2)n(CC)c(=O)n3CC)cc1OCC	2.12	-0.44
Additional records.
SMILES	KCNQ2 pot	KCNQ2 pot baseline
CCN1CCN(C(=O)C2CCN(C(=O)c3cc4sccc4n3CC)CC2)CC1	1.52	-0.02
CCOc1ccc(NC(=O)CN(C)C(=O)CCNC(=O)c2ccc(Br)cc2)cc1OCC	2.62	0.31
CCCNC(=O)C1CC(=O)N(c2ccc(OCC(=O)Nc3cc(C)cc(C)c3)cc2)C1 (stereo not given)	1.29	-1.06
CC(=O)Nc1ccc(S(=O)(=O)N2CCSC2)cc1	0.49	0.04
Cc1ccc2nc3c(c(C(=O)O)c2c1)CCC3	0.62	0.66
O=C(c1ccc(CSc2ccc(Cl)cc2)cc1)N1CCOCC1	0.29	-0.2
Cc1cc(NCCCN(C)C)n2c(nc3ccccc32)c1C#N	0.83	1.13
CCOc1cc(C=O)ccc1OCCn1c([N+](=O)[O-])cnc1C	0.86	1.88
CC1CCCCN1C(=O)CCc1nnc(Cc2c[nH]c3ccccc23)o1 (stereo not given)	1.29	1.43
CCCCOC(=O)c1ccccc1N1C(=O)C2C3CCC(C3)C2C1=O (stereo not given)	0.79	0.54
CC(C)c1nnc(NC(=O)c2nc(S(=O)(=O)Cc3ccccc3)ncc2Cl)s1	14.8*	0.32*
CC(NC(=O)c1ccc(Br)o1)C1CC2CCC1C2 (stereo not given)	4.12	0.84
CCOc1ccc(OCC(=O)Nc2nccs2)cc1	0.13	0.1
COC(CCN(C)C)(c1ccccc1)c1ccccc1	1.77	-0.03
Cc1cc(CNC(=O)CC2C(=O)NCCN2Cc2ccc(-c3ccccc3)cc2)nn1C (stereo not given)	0.69	0.53
O=C(CC1SCCNC1=O)Nc1cccc([N+](=O)[O-])c1 (stereo not given)	0.17	-1.33
Cc1cc(C)n2c(-c3ccccc3Cl)nnc2n1	0.2	-0.85
CCOc1ccc(-c2c(C(=O)N/N=C/C3CCCCC3)nnn2-c2nonc2N)cc1	0.98	2.14
CCOc1cc(C2C(C(=O)OC(C)C)=C(C)NC3=C2C(=O)CCC3)cc([N+](=O)[O-])c1O (stereo not given)	1.76	-0.35
COc1ccc(C2CCCN2C(=O)c2cccs2)cc1 (stereo not given)	0.99	-0.94
CC(=O)NC(Cc1c[nH]c2ccccc12)C(=O)O (stereo not given)	1.7	-1.1
O=C(Oc1cccc2cccnc12)c1cccc(-n2cnnn2)c1	0.49	-1.81
Fc1ccc2c(c1)C1OCCCC1C(c1ccccc1)N2 (stereo not given)	0.01	-1.11
Cc1ccsc1/C=C1/SC(N2CCOCC2)=NC1=O	0.11	-0.01
CC(C)(C)c1nc2scc(-c3ccc(Cl)cc3)c2c(=O)o1	0.12	1.08
CCC(C(=O)Nc1ccncc1)c1ccccc1 (stereo not given)	1.3	-0.01
O=C(C1CCC1)N1CCc2cc(S(=O)(=O)NC3CCCc4ccccc43)ccc21 (stereo not given)	0.24	1.76
COc1ccc(-n2nc(C(=O)NCC(=O)N3CC(C)CC(C)C3)c3ccccc3c2=O)cc1OC (stereo not given)	0.83	0.24
CC(C)c1ccc(CCNC(=O)CSC(=S)N2CCCC2)cc1	0.36	-1.26
CC(Sc1nc2c(c(=O)[nH]1)CCCC2)C(=O)Nc1ccccc1C#N (stereo not given)	0.98	1.15
COCCCNCCCCSc1ccc(Cl)cc1	0.95	0.61
Cc1cc(NC(=O)c2ccc(Br)c(S(=O)(=O)N3CCCC3)c2)no1	0.25	-0.61
Cc1ccc(-c2cc(C(=O)N3CCN(C(=O)c4ccco4)CC3)[nH]n2)c(C)c1	0.35	-1.36
O=C(COc1ccc(Cl)cc1Br)Nc1ccncc1	0.34	0.08
CC(C)C(C(=O)C=[N+]=[N-])N1C(=O)c2ccccc2C1=O (stereo not given)	0.55	-0.01
CCn1cc(C(=O)O)c(=O)c2cc(F)c(N3CCN(C(=S)NC(=O)c4ccc(OC)cc4)CC3)cc21	0.39	0.21
O=c1[nH][nH]cc1C=Nc1cc(Cl)ccc1O	0.64	-0.27
CN1CCN(C(=O)c2ccc(CS(=O)(=O)c3c(Cl)cccc3Cl)o2)CC1	0.41	0.51
Cc1ccc(S(=O)(=O)N2CCC(N3CCCCCC3)CC2)cc1	1.23	-1.36
Cn1c(SCC(=O)NCc2ccccc2)nc2ccccc21	0.9	1.56
O=C(CSc1n[nH]c(-c2cccs2)n1)N1CCCc2ccccc21	1.03	-0.11
Cn1ccsc1=NC(=O)c1ccccc1OC(F)F	0.17	2.11
O=C(Nc1nc(-c2ccc(F)cc2)cs1)C1CCCO1 (stereo not given)	2.09	-0.12
COc1ccc(C2=NOC(C(=O)Nc3cc(Br)ccc3O)C2)cc1OC (stereo not given)	0.09	-1.04
O=C(Nc1ccon1)c1csc2ccccc12	0.19	-1.4
CCC1=Nc2cc(C(=O)NCC3CCCO3)ccc2Sc2ccc(Br)cc21 (stereo not given)	0.62	-0.89
Cc1c(OCC(=O)NC(Cc2ccc(Cl)cc2)C(=O)O)ccc2c3c(c(=O)oc12)CCC3 (stereo not given)	0.22	1.67
O=C(Nc1nc2ccccc2n1CCN1CCOCC1)c1ccccc1	0.54	-0.98
Nc1ccccc1Sc1ccc(C(=O)c2ccccc2C(=O)O)cc1[N+](=O)[O-]	0.02	0.96
Cc1cc(C)cc(C(=O)N/N=C/c2ccoc2)c1	1.39	0.31

Retrieved one by one from the entries so far (three):
SMILES	KCNQ2 pot	KCNQ2 pot baseline
O=C(Nc1nc(-c2ccc(F)cc2)cs1)C1CCCO1 (stereo not given)	2.09	-0.12
O=C(Nc1ccon1)c1csc2ccccc12	0.19	-1.4
O=C(Nc1nc2ccccc2n1CCN1CCOCC1)c1ccccc1	0.54	-0.98

Returning to the listing with the seven entries that preceded the break.
SMILES	KCNQ2 pot	KCNQ2 pot baseline
COc1ccc(C2=NOC(C(=O)Nc3cc(Br)ccc3O)C2)cc1OC (stereo not given)	0.09	-1.04
O=C(Nc1ccon1)c1csc2ccccc12	0.19	-1.4
CCC1=Nc2cc(C(=O)NCC3CCCO3)ccc2Sc2ccc(Br)cc21 (stereo not given)	0.62	-0.89
Cc1c(OCC(=O)NC(Cc2ccc(Cl)cc2)C(=O)O)ccc2c3c(c(=O)oc12)CCC3 (stereo not given)	0.22	1.67
O=C(Nc1nc2ccccc2n1CCN1CCOCC1)c1ccccc1	0.54	-0.98
Nc1ccccc1Sc1ccc(C(=O)c2ccccc2C(=O)O)cc1[N+](=O)[O-]	0.02	0.96
Cc1cc(C)cc(C(=O)N/N=C/c2ccoc2)c1	1.39	0.31
COc1ccc(NC(=O)C2CCC(=O)N2C(=O)OCc2ccccc2)cc1 (stereo not given)	1.27	-1.62
Clc1cccc(Cc2ccc(Cl)nn2)c1	0.07	-0.09
O=c1oc2ccccc2c(Nc2ccccc2)c1[N+](=O)[O-]	0.21	0.25
CCc1nnc(NC(=O)c2nc(S(=O)(=O)Cc3ccccc3)ncc2Cl)s1	12.1*	-0.7*
Nc1cccc2c(O)cccc12	0.04	0.73
COCCNC(=O)Cc1c(C)c2cc3c(cc2oc1=O)OC(C)(C)CC3	1.39	0.08
CSc1nc2ccc(NS(=O)(=O)c3ccc([N+](=O)[O-])cc3)cc2s1	1.68	-0.04
COc1cc(/C(C)=N/NC(=O)Cc2c(C)[nH][nH]c2=O)ccc1O	0.56	-1.15
CCOC(=O)c1[nH]c(C)c(C(=O)N(CC)CC)c1C	0.32	-0.64
Cc1[nH]n(-c2ccccc2)c(=O)c1/C=N/c1ccccn1	1.26	-0.14
O=C(CCNC(=O)c1ccccc1Cl)Nc1ccc(Br)c(C(F)(F)F)c1	1.22	-0.06
CCc1nnc(SCc2ccc(CSc3nnc(CC)n3N)cc2)n1N	0.56	-1.84
Cc1ccccc1C(=O)N1CCN(c2ccc(NC(=O)c3ccccc3[N+](=O)[O-])cc2)CC1	0.22	-0.02
COc1ccc(C(=O)NCc2cn3ccccc3n2)cc1	1.17	-0.77
COc1cc(C2C(C#N)=C(N)N(c3cccnc3)C3=C2C(=O)CC(C)(C)C3)ccc1O (stereo not given)	1.51	-0.41
CCc1nn(CC(=O)N2CCN(Cc3ccc4c(c3)OCO4)CC2)c(=O)c2cc3occc3n12	1.39	0.93
Cn1c(=O)c2c(nc(CN3CCc4ccccc4C3)n2CCCO)n(C)c1=O	0.45	-0.12
CCOc1ccccc1NC(=O)CSc1nc(=O)n(CCCN2CCOCC2)c2c1CCC2	0.36	0.56
N#Cc1c(-c2ccc(Cl)cc2Cl)nc2n(c1=O)CCS2	0.18	-0.44
CCOc1ccccc1OCCOc1cccc(C(F)(F)F)c1	1.39	0.39
